ugtP null kill: growth inhibition of S. aureus ugtP deletion strain | S. aureus RN4220 ugtP deletion, OD600 growth, 16 h; some inactives read as strong as hits | growth inhibition, % (test concentration not listed) | AID 1259309 | actives 0.54% (n = 330,000);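 active means z-score under -3 and OD600 up to 0.15 on both plates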;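 further: plate controls were untreated wells for no effect and antibiotic for full effect; wells of about 80 µL received 100 nL stock; the first replicate is given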
BJeLR viability: BJeLR cell viability loss; actives 0.17% (n = 300,000); inhibition, % (no concentration beside the values); AID 1554; BJeLR (HRASV12) viability, CellTiter-Glo ATP luminescence, 48 h; reference of the scale not given here;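 active means replicate mean above 50%; inconclusive means above 50% but judged a plate artefact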;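 further: 50 nL library stock added to about 25 µL; numbers are from one replicate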
Sa RN4220 lethal: S. aureus RN4220 growth inhibition | OD600, 16 h | inhibition, % (no concentration beside the values) | actives 0.33% (n = 330,000);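 active means z-score of -3 or lower and OD600 up to 0.18 on both plates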;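 further: plate controls were untreated cells for no effect and reference antibiotic for full effect; stock transfer was 100 nL into about 80 µL; one replicate is shown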
PrP UTR inh: suppresses PrP 5' UTR mRNA reporter expression; AID 488862; inhibition, % (concentration not given with the values); actives 0.35% (n = 340,000); cell-based PrP 5' UTR mRNA reporter, plate reader;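 active means every replicate at 50% or more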;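 further: 0 = median of the neutral control wells; tested in H4 reporter cells; numbers are from one replicate; inactives centre near -14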
Mtb hypoxia rep: inhibitors of hypoxia-regulated fluorescent reporter in Mycobacterium tuberculosis | M. tuberculosis hypoxia-regulated fluorescent reporter, fluorescence | fluorescence inhibition, % (test concentration not listed) | actives 0.1% (n = 300,000);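 active means 35 to 45% if threefold the growth effect, above 45% if 1.5-fold the growth effect; inactive means the rest, general growth blockers included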;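 further: wells of about 50 µL received 100 nL stock; 0% = vehicle wells and 100% = reference inhibitor wells; whole bacteria with a GFP reporter of the hypoxia response; strong numbers were not always called active; many hits fall short of the cut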
Bead autofluor: counter-screen for toxin protease inhibitors: compound fluorescence; compound autofluorescence counterscreen, microsphere flow cytometry; stronger effect = higher value; fluorescence intensity (no concentration beside the values); actives 3.1% (n = 360,000); AID 624483;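 active means at least 3 SD above the mean of all compounds, about 16000 in these data; inconclusive means too few beads counted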;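 further: 100 nL of 1 mM stock went into each well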
Mtb hypoxia rep growth: also measured in Mtb hypoxia rep; calls as there; growth inhibition, %; measured here: M. tuberculosis growth (absorbance);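 0% = vehicle and 100% = reference antibiotic; read after six days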
Numbers without * were called inactive; ? = inconclusive; nt = not tested or not shown.

SMILES | ugtP null kill | BJeLR viability | Sa RN4220 lethal | PrP UTR inh | Mtb hypoxia rep | Mtb hypoxia rep growth | Bead autofluor
C=CC[C@@H](C)CC(=O)C(CCCN=[N+]=[N-])SOOc1ccccc1 (stereo partly drawn) | -4 | nt | -12 | -22 | 8 | 14 | 3413
C=CCOc1ccc(Br)cc1/C=C1\NC(=S)N(C(C)=O)C1=O | -5 | 4 | 3.3 | -17 | 7 | 15 | 3438
Nc1c(C(=O)OCC2CCCO2)c2nc3ccccc3nc2n1Cc1cccs1 (stereo not drawn) | -20 | -6 | -21 | -15 | -2 | 16 | 2391
Cn1c(=O)c2c(nc(NCc3ccco3)n2CCc2ccccc2)n(C)c1=O | 4 | 1 | 12 | -22 | -5 | -1 | 2986
CC(=O)c1cccc(NC(=O)CSc2ccc(-c3ccccn3)nn2)c1 | 6 | -12 | -0.7 | -4 | 10 | 7 | 4899
Cc1cc(C)cc(NC(=S)N(C)C)c1 | 4 | 7 | 2.4 | -26 | 3 | 5 | 4035
CC1CCN(C(=O)c2cc3c(ccc4ccccc43)o2)CC1 | -5 | -6 | 4.2 | -19 | 5 | 2 | 7421
CCC(=NCc1cccnc1)c1c(O)n(-c2ccccc2)c(=O)[nH]c1=O | 7 | -14 | 1.8 | nt | 4 | -6 | 3144
CN(C)C(=O)COC(=O)/C=C/c1cn(-c2ccccc2)nc1-c1cccs1 | 7 | -1 | -4.8 | -22 | -1 | 10 | 3806
Cc1cccc(OCC(=O)Nc2ccccc2N2CCCC2)c1C | 12 | 6 | 7.0 | 5 | 12 | -3 | nt
CC(C)CNC(=O)Cn1nc(C(F)(F)F)c2c1CCCC2 | 9 | -13 | -0.3 | 0 | 1 | 5 | 4168
S=c1[nH]nc(Cc2n[nH]c(=S)n2-c2ccccc2)n1-c1ccccc1 | -3 | 0 | 3.8 | -5 | 3 | 4 | 3586
Nc1ccc(C(=O)NN=Cc2cn(Cc3ccccc3F)c3ccccc23)cc1 | 3 | nt | 1.9 | nt | 4 | 4 | nt
COc1ccc(N2CCN(C(CNC(=O)C3CCCCC3)c3ccco3)CC2)cc1 (stereo not drawn) | 5 | -5 | 0.7 | -31 | 11 | -2 | 5163
Cc1ccc(CNC(=O)CCSCc2ccc(C)cc2)cc1 | 8 | -2 | -0.5 | -62 | 10 | 5 | 4213
CC1=CC(C)(C)Nc2cc(C)c(C)cc21 | -5 | nt | -1.0 | -8 | nt | nt | 4487
CC(OC(=O)c1cccnc1Cl)C(=O)Nc1ccc2c(c1)OCO2 (stereo not drawn) | -1 | nt | 3.9 | -21 | 9 | 14 | 5326
COc1cccc(NC(=O)CNC(=O)c2ccc(C)cc2)c1 | -1 | -4 | -0.6 | -26 | 3 | -1 | 2653
O=[N+]([O-])c1ccc(/C=N/N2CCN(Cc3ccccc3)CC2)cc1 | nt | 4 | nt | -11 | nt | nt | 4242
O=c1c2ccccc2c(C=Nc2ccc(O)cc2)c(O)n1-c1nccs1 | 6 | 1 | 3.2 | nt | 6 | 2 | nt
COCc1cc(C)nc(SCC(=O)Oc2ccc(Cl)cc2)c1C#N | -1 | 3 | 7.8 | -17 | 9 | 6 | 3808
CCOC(=O)c1sc(NC(=O)COC(=O)Cn2cnc3ccccc32)c(C(=O)OCC)c1C | -5 | 30 | -4.7 | 9 | -3 | 8 | 3499
Cc1cccc(N2CCN(C(=O)CCNS(=O)(=O)c3ccc4c(c3)CCC(=O)N4)CC2)c1C | 3 | 5 | 5.4 | -20 | 5 | 7 | 5809
O=C(CCCN1C(=O)c2cccnc2C1=O)Nc1ccccc1F | 6 | 2 | 12 | -5 | -6 | -3 | 3851
O=C(OCn1ncc(Cl)c(Cl)c1=O)c1ccccc1Cl | 15 | -44 | 11 | -9 | 12 | 12 | 16218*
O=C(O)c1ccc(N/N=C/c2ccc3c(c2)OCO3)cc1 | nt | 42 | nt | 77* | nt | nt | 4352
Cc1ccc(-n2c(C)cc(C=NNc3ccc([N+](=O)[O-])cn3)c2C)c(C)c1 | 13 | nt | 19 | nt | -13 | 0 | nt
O=C(/C=C/c1ccc(S(=O)(=O)NCc2ccco2)cc1)N1CCN(c2ccccc2)CC1 | 1 | 3 | 1.9 | -7 | 4 | -1 | 4561
O=C(NC(NC(=S)Nc1ccccc1)C(Cl)(Cl)Cl)c1cccc(Cl)c1 (stereo not drawn) | 74 | -5 | 43 | -38 | 2 | 2 | 8162
Cc1cc(OCc2cc(C(=O)NC(C)c3c(C)nn(C)c3C)no2)cc(C)c1Cl (stereo not drawn) | -6 | 6 | 2.5 | -62 | 11 | 4 | 5566
C=CCOc1cccc(C2C(C(=O)c3ccc(C)o3)=C(O)C(=O)N2CCN(C)C)c1 (stereo not drawn) | -1 | nt | 4.4 | 2 | nt | nt | 4394
CCCC(=O)Nc1nn(CCC)c2nc3ccccc3cc12 | -8 | -9 | 2.2 | -17 | 5 | 0 | 21458*
Oc1ccc(Cl)cc1CNCC1CCCCC1 | -1 | nt | 3.7 | -44 | nt | nt | 2864
Cc1ccc(NC(=O)Cn2cnc3cc([N+](=O)[O-])ccc3c2=O)c(Cl)c1 | 3 | -3 | -2.3 | -1 | -1 | 4 | 7232
Cc1nc(SCC(=O)Nc2ccc(F)cc2)c2oc3ccccc3c2n1 | -5 | 5 | 2.4 | -10 | 6 | 6 | 2961
O=C(Nc1ccc(S(=O)(=O)N2CCCC2)cc1)N1c2ccccc2Sc2ccccc21 | -5 | 9 | -3.7 | -6 | -7 | 1 | 9810
CCCCN(C(=O)c1ccc2c(c1)OCO2)c1c(N)n(CC(C)C)c(=O)[nH]c1=O | 2 | nt | 3.9 | -6 | -8 | 4 | ?
Cc1nc2ccccc2n1CC(=O)N1CC(=O)Nc2ccccc21 | -2 | -5 | 5.0 | -12 | 11 | 5 | 6798
COc1ccc(NC(=O)c2cccc(NC(=O)C3C4CC5OC(=O)C3C5C4)c2)c(OC)c1 (stereo not drawn) | 2 | 10 | -1.1 | -10 | nt | nt | 3839
CCCCC(=O)Nc1nc(C)c(-c2csc(Nc3cc(Cl)ccc3OC)n2)s1 | -40 | -6 | -4.6 | 5 | 3 | 8 | 3703
COc1ccccc1N1CCN(CC(=O)Nc2ccccc2C(=O)NCCc2ccccc2)CC1 | -7 | nt | 7.1 | -21 | 10 | 6 | 8185
CCC(=O)N(CCC(c1ccco1)c1ccccc1OC)Cc1cccs1 (stereo not drawn) | 35 | -18 | 3.6 | -37 | 19 | 10 | 23755*
CN1CCN(c2nc3c(c(=O)[nH]c(=O)n3C)n2CCSc2nnnn2-c2ccccc2)CC1 | -3 | -2 | 7.2 | -17 | 9 | 12 | ?
Cc1ccc(NC(=O)Cc2ccc(Cl)cc2)nc1 | 3 | 4 | 3.0 | -17 | -9 | -2 | ?
Cc1cc(C)c2c(CN3CCN(C/C=C/c4ccccc4)CC3)cc(=O)oc2c1 | -7 | 0 | -1.4 | -22 | 5 | 14 | 9992
c1cnc(N2CCN(c3ccc4ccccc4n3)CC2)nc1 | nt | 2 | nt | -159 | nt | nt | 5771
CCN1CCN(Cc2cc(Br)ccc2O)CC1 | -4 | -7 | 5.2 | -25 | 13 | 12 | 9332
Cc1cccc(-c2noc(CN(C(=O)c3c(-c4ccccc4Cl)noc3C)C(C)C)n2)c1 | 10 | nt | 8.8 | -6 | nt | nt | 5710
O=C(CN1CCCCCCC1)Nc1cc(Cl)cc(Cl)c1 | -6 | 0 | -4.1 | -5 | 7 | 8 | 4728
COc1ccc(C(=O)N(C)Cc2ccccc2F)cc1S(=O)(=O)N1CCCC1 | 9 | nt | 8.2 | -19 | 14 | 12 | 5425
Cc1[nH]nc2c1C(c1ccccn1)N(c1ccc(Br)cc1)C2=O (stereo not drawn) | -1 | -6 | 0.9 | -16 | -17 | -4 | ?
Cc1cccc(NC(=O)COC(=O)CCc2c[nH]c3ccccc23)c1C | 8 | nt | 8.0 | 1 | nt | nt | 6450
CC(=NCc1ccco1)c1c(O)n(-c2ccccc2)c(=O)[nH]c1=O | 4 | 5 | 1.3 | -15 | 1 | 3 | 9335
CCOC(=O)N1CCC(N2CCCC(CO)(Cc3ccccc3C)C2)CC1 (stereo not drawn) | 9 | -5 | 4.4 | -25 | 8 | 5 | 8496
C=C1c2ccccc2O[C@H](C(=O)OCC)[C@@H]1C1CCCCC1 | 35 | nt | 2.5 | -109 | 10 | 6 | 3312
COc1ccc(CSc2ccc(S(=O)(=O)N3CCCCC3)cn2)cc1F | 7 | nt | 2.9 | -8 | 11 | 8 | 8784
Cc1ccc(NS(=O)(=O)c2ccc(-c3ccc(=O)[nH]n3)o2)c(C)c1 | -1 | -2 | 3.9 | -25 | 3 | 1 | 5586
CCOc1cc(CO)cc(Br)c1OCC(N)=O | 2 | 1 | -0.5 | -9 | 10 | 3 | 2118
CC1(C)N=C(SCC(=O)Nc2ccccc2)C(c2ccc(Cl)cc2)=N1 | 2 | -2 | 0.7 | 0 | 7 | 11 | 3323
O=C(CN1CCCCC1)Nc1ccccc1NC(=O)CN1CCCCC1 | 1 | -7 | 3.0 | -10 | 3 | 5 | 7198
Continued.
SMILES | ugtP null kill | BJeLR viability | Sa RN4220 lethal | PrP UTR inh | Mtb hypoxia rep | Mtb hypoxia rep growth | Bead autofluor
Cc1cc(NCCOCCO)n2ncc(-c3ccc(Cl)cc3)c2n1 | 4 | 3 | -1.8 | -44 | 18 | 9 | 9774
Cc1ncoc1C(=O)N1CCCC(C(=O)c2cccc(C(F)(F)F)c2)C1 (stereo not drawn) | -4 | -3 | 4.6 | -5 | 18 | 10 | 4435
CC(=O)Nc1ccc(S(=O)(=O)N2CCC(C(=O)NCCC(=O)Nc3nccs3)CC2)cc1 | -3 | 3 | 1.5 | -14 | -1 | 1 | 4493
COC(=O)c1nc(N)sc1-c1ccccc1 | 3 | nt | 7.4 | -17 | nt | nt | 4565
CCN(CCCNC(=O)Cn1ncc2c([nH]c3ccc(C)cc32)c1=O)c1cccc(C)c1 | -9 | 12 | 1.1 | 0 | 0 | -2 | 4512
COc1ccccc1OCC(=O)N1CCN(c2ccccc2OC)CC1 | -3 | -12 | 2.8 | -8 | 16 | 7 | 10643
Cc1c(NC(=O)c2ccc(Cl)c(S(=O)(=O)N3CCCCC3)c2)c(=O)n(-c2ccccc2)n1C | 10 | -6 | -0.5 | -10 | 14 | -1 | 5990
COc1cc2cnc(-c3ccccc3)c(C(=O)c3ccc(OCc4ccccc4)cc3)c2cc1OC | 6 | nt | 6.4 | -10 | -9 | 12 | 2895

An excerpt from above in order of molecular weight, lowest first:
SMILES | ugtP null kill | BJeLR viability | Sa RN4220 lethal | PrP UTR inh | Mtb hypoxia rep | Mtb hypoxia rep growth | Bead autofluor
COC(=O)c1nc(N)sc1-c1ccccc1 | 3 | nt | 7.4 | -17 | nt | nt | 4565
C=C1c2ccccc2O[C@H](C(=O)OCC)[C@@H]1C1CCCCC1 | 35 | nt | 2.5 | -109 | 10 | 6 | 3312
Cc1ccc(NS(=O)(=O)c2ccc(-c3ccc(=O)[nH]n3)o2)c(C)c1 | -1 | -2 | 3.9 | -25 | 3 | 1 | 5586
Cc1cc(NCCOCCO)n2ncc(-c3ccc(Cl)cc3)c2n1 | 4 | 3 | -1.8 | -44 | 18 | 9 | 9774
O=C(CN1CCCCC1)Nc1ccccc1NC(=O)CN1CCCCC1 | 1 | -7 | 3.0 | -10 | 3 | 5 | 7198
Cc1ncoc1C(=O)N1CCCC(C(=O)c2cccc(C(F)(F)F)c2)C1 (stereo not drawn) | -4 | -3 | 4.6 | -5 | 18 | 10 | 4435
CC1(C)N=C(SCC(=O)Nc2ccccc2)C(c2ccc(Cl)cc2)=N1 | 2 | -2 | 0.7 | 0 | 7 | 11 | 3323
COc1ccc(CSc2ccc(S(=O)(=O)N3CCCCC3)cn2)cc1F | 7 | nt | 2.9 | -8 | 11 | 8 | 8784
CCN(CCCNC(=O)Cn1ncc2c([nH]c3ccc(C)cc32)c1=O)c1cccc(C)c1 | -9 | 12 | 1.1 | 0 | 0 | -2 | 4512
CC(=O)Nc1ccc(S(=O)(=O)N2CCC(C(=O)NCCC(=O)Nc3nccs3)CC2)cc1 | -3 | 3 | 1.5 | -14 | -1 | 1 | 4493
Cc1c(NC(=O)c2ccc(Cl)c(S(=O)(=O)N3CCCCC3)c2)c(=O)n(-c2ccccc2)n1C | 10 | -6 | -0.5 | -10 | 14 | -1 | 5990

Screening data as filed in PubChem.
